Vaccinia mCherry: inhibitors of vaccinia virus infection (mCherry reporter signal); Vaccinia virus mCherry reporter infection, fluorescence; about a quarter of the inactives have no number; AID 720579; Potency, µM (doses to about 36.5 µM), for inactives: top-dose activity change, negative = inhibition, usual class: inhibitors; 0.63% of 310,000 active; active = well fitted inhibition curve with a large enough effect; inconclusive = small, poorly fitted or top-dose-only effect; inactive = no such curve, though single readings can be large or run the other way; tested in A549 cells; further: nearly all actives have a fitted effect of over 35% in size; inactives centre near -10
Vaccinia Venus: vaccinia inhibition (Venus reporter). 0.46% of 330,000 active. Potency, µM (doses to about 36.5 µM), without a hit: at the highest dose activity change, negative = inhibition, usual class: inhibitors. AID 720580. Vaccinia virus Venus reporter expression, fluorescence; active means well fitted inhibition curve with a large enough effect; inconclusive means small, poorly fitted or top-dose-only effect; inactive means no such curve, though single readings can be large or run the other way; tested in A549 cells; further: nearly all actives have a fitted effect of over 30% in size; inactives centre near -10
The depositor's hits bear a star; i = inactive; ? = inconclusive; · = no result given; [ ] = another dose, or the depositor's remark. On the % scale 0 is the no-effect control and ±100 the full control effect; potency means the concentration at half of the fitted maximal effect.

#	molecule	Vaccinia mCherry	Vaccinia Venus
1	O=C(CNC(=O)c1ccccc1F)OCc1csc(-c2ccccc2)n1	-15.0%	-8.3%
2	COc1ccc2c(c1)CCc1cnc(-n3ncc(C(=O)NCCCc4ccncc4)c3C)nc1-2	?	-22.7%
3	Cc1cc(C)c2sc(C)[n+](CCCS(=O)(=O)[O-])c2c1	i	-1.0%
4	Cc1cc(=O)n2[nH]c(N)c(N=Nc3ccccc3)c2n1	-21.8%	-9.5%
5	Cc1ccc(S(C)(=O)=O)cc1C(=O)NC(C)C1CC2CCC1C2 (stereo unspecified)	i	-3.0%
6	COc1nc(NCCN2CCOCC2)nc(Nc2ccccc2)n1	-2.1%	-8.6%
7	COc1ccc(C(=O)CC(C#N)c2ccc3c(c2)OCO3)cc1OC (stereo unspecified)	i	-1.4%
8	CC(C)C(c1nnnn1C(C)(C)C)N1CCC(Cc2ccccc2)CC1 (stereo unspecified)	-12.6%	-7.5%
9	COc1ccc(-c2csc(NC(CO)c3nc4ccccc4n3Cc3ccc(C)cc3)n2)cc1 (stereo unspecified)	-28.7%	?
10	CSc1nc2sc3c(c2c(=O)n1-c1ccc(F)c(Cl)c1)CCN(C(C)=O)C3	1.6%	-6.0%
11	O=c1[nH]cc(S(=O)(=O)N2CCN(c3cccc(Cl)c3)CC2)c(=O)[nH]1	-4.9%	-8.4%
12	Cc1c(C(=O)O)sc(S(=O)(=O)N2CCN(C(=O)Cc3ccc(F)cc3)CC2)c1C(=O)O	i	-6.7%
13	CN1CCN(C(=O)CCC(=O)O)CC1	-17.6%	-2.8%
14	O=C(COC(=O)COc1ccccc1[N+](=O)[O-])Nc1cccc(Br)c1	-20.1%	-7.5%
15	Cc1nc(C)c(C(=O)C2=C(O)C(=O)N(CCCn3ccnc3)C2c2ccccc2)s1 (stereo unspecified)	0.0%	0.0%
16	CCC(C)N1CCN(S(=O)(=O)c2ccc(NC(C)=O)cc2)CC1 (stereo unspecified)	i	-2.9%
17	CCC(C(=O)OCC(=O)c1c(N)n(CC(C)C)c(=O)n(C)c1=O)c1ccccc1 (stereo unspecified)	?	?
18	CCOC(=O)c1cc2c(c(-c3cccc(C#Cc4ccc(OC)c(OC)c4)c3)n1)[C@@H](CCO)N(S(=O)C(C)(C)C)C2 (stereo partly specified)	2.8%	1.8%
19	COc1ccc(Cl)cc1S(=O)(=O)N1CCC(C(=O)NCc2ccco2)CC1	i	-14.9%
20	Cc1ccc(NC(=O)NCc2ccccn2)c(C)c1	i	-4.7%
21	CC12CCC(C(=O)N(CC3CO3)C1=O)C2(C)C (stereo unspecified)	-13.9%	-6.4%
22	COc1cc(NC(=O)c2cc(S(=O)(=O)N3CCCCC3)ccc2N2CCOCC2)cc(OC)c1OC	i	-3.1%
23	CC(=O)Oc1ccc2oc(C)c(C(=O)N3CCOCC3)c2c1	17.4%	17.7%
24	Cn1cnc(S(=O)(=O)NCc2ccc(Br)cc2)c1	9.1%[7.34 µM]	0.0%[7.34 µM]
25	O=C(Nc1ccccc1OC(F)(F)F)c1ccc([N+](=O)[O-])cc1	i	-4.9%
26	CCCN(Cc1cc2ccc(C)cc2[nH]c1=O)C(=O)c1ccccn1	·	?
27	COc1ccccc1NC(=O)CN(C)S(=O)(=O)c1cccc2cccnc12	-16.4%	-7.8%
28	Cc1ccc(C(=O)NCc2ccncc2)cc1S(=O)(=O)N1CCOCC1	-14.7%	-7.2%
29	Cc1cccc2sc(NC(=O)C3CCN(S(=O)(=O)c4cc([N+](=O)[O-])ccc4Cl)CC3)nc12	?	?
30	O=C(COc1ccc(/C=N/NC(=O)c2ccccc2Br)cc1)Nc1ccccc1	i	-9.4%
31	COc1ccc(-c2cc(CNc3nc(NC(C)C)nc4cc(-c5ccccc5)sc34)on2)cc1	?	?
32	Cc1cc(C)cc(C(=O)NCCCc2ccccc2)c1	i	-5.8%
33	COc1ccc2c(c1)O/C(=C\c1ccco1)C2=O	?	-10.3%[7.34 µM]
34	COc1cc(C(=O)N/N=C(\C)c2ccccn2)cc(OC)c1OC	?	?
35	COc1ccc2c(c1)c1c(c(=O)n(Cc3ccccc3)c(=O)n1Cc1ccc(C)cc1)n2C	-0.4%	-4.3%
36	COC(=O)c1cnn(-c2ccc(F)cc2F)c1/C=N/NC(=S)NC(C)(C)C	-28.6%	-17.9%
37	CC(C)CCN1C(=O)c2ccc(C(=O)Nc3ccccn3)cc2C1=O	-20.7%	-15.3%
38	N/C(Cc1ccc(Cl)cc1)=N\OC(=O)c1ccccc1	-11.8%	-18.9%
39	CN(C(=O)COC(=O)c1cncc(Br)c1)C1CCS(=O)(=O)C1 (stereo unspecified)	-12.1%	-5.3%
40	CCCn1c(SCC(=O)Nc2cccc(C)n2)nnc1-c1ccco1	-9.4%	-20.8%
41	COc1ccc(S(=O)(=O)n2cnc3ccccc32)c(C)c1	-25.4%	-21.0%
42	CC(C)(C)NC(=O)COC(=O)c1c2c(nc3ccccc13)CCC2	4.3%	-2.9%
43	COc1ccc2nc(NC3=NCCC3)sc2c1	-28.9%	-4.0%
44	COc1ccc(C(c2nnnn2C2CCCC2)N2CCN(C3CCCC3)CC2)cc1OC (stereo unspecified)	·	?
45	Cc1c(Cl)cccc1NC(CC(=O)c1ccccc1)C(=O)OCC(=O)c1cccs1 (stereo unspecified)	-6.3%	0.0%
46	COc1cccc(OC)c1C(=O)Nn1c(-c2cccs2)nc2ccccc2c1=O	-11.9%	-1.0%
47	Cc1c(C(=O)Nc2ccc(S(=O)(=O)Nc3ncccn3)cc2)oc2ccc(F)cc12	i	-12.1%
48	CCn1c2ccccc2c2cc(NC(=O)C(C)Oc3ccc(OC)cc3)ccc21 (stereo unspecified)	·	-25.9%
49	CCOC(=O)c1c(-c2ccccc2)oc2cc(Br)c(OCc3ccccc3)cc12	-0.7%	2.2%
50	Cc1ccc(C(=O)n2nc(-c3ccco3)nc2N)cc1	-11.3%	-15.5%
51	Cn1c(CCNS(=O)(=O)c2ccccc2)nnc1SCc1cccnc1	-14.0%	-15.3%
52	Cc1oc(-c2ccccc2)cc1C(N)=O	-14.8%	-7.1%
53	c1ccc(CNc2ncnc3nc(N4CCOCC4)[nH]c23)cc1	-11.4%	-18.8%
54	CSc1ncnc2c1ncn2CCCN[C@H](C)c1cccc2ccccc12	-20.3%	-19.9%
55	N/C(=N\OC(=O)CCC1CCCC1)c1ccccn1	-12.9%	-10.5%
56	C[C@H](CO)N1C[C@H](C)[C@@H](CN(C)S(=O)(=O)c2cccs2)Oc2c(NC(=O)C3CCCCC3)cccc2C1=O	-22.1%	-21.9%
57	CN1CCN(c2cc(-c3cccc(C(=O)O)c3)nc3ccnn23)CC1	15.4%	12.0%
58	CCOC(=O)CSc1nc(N)c(C(=O)Nc2ccc(N(C)C)cc2)s1	i	-11.6%
59	Cc1n[nH]c(C)c1S(=O)(=O)NCCc1ccc(Cl)cc1	·	-12.3%
60	O=C(Nc1nccs1)c1ccc(-c2ccc(F)cc2)o1	?	-22.6%

(list continues)
#	molecule	Vaccinia mCherry	Vaccinia Venus
61	O=C(c1cc2ccccc2oc1=O)N(c1ccc(Cl)cc1)C1C=CS(=O)(=O)C1 (stereo unspecified)	-12.6%	-23.1%
62	Cc1cc(Br)cn2c(CC(=O)N3CCCCC3)c(-c3ccc(F)cc3)nc12	4.7%	-2.3%
63	COc1ccc(CCNC(=O)C(=O)c2cn(CC(=O)N3CCOCC3)c3ccccc23)cc1OC	-14.3%	0.2%
64	Cc1ccc(S(=O)(=O)N(C)c2c(C)ccc(S(=O)(=O)N3CCN(C=O)CC3)c2C)cc1	-4.6%	-16.1%
65	Cc1ccc(N/C(N)=N/c2nc(CSc3ccccn3)cc(=O)[nH]2)c(C)c1	i	-14.0%
66	Cc1ccc(C)c(Cn2c(=O)c3c(nc4n3CCN4c3ccc(F)cc3)n(C)c2=O)c1	-4.6%	-0.9%
67	CC(C)C(=O)Nc1ccc2nn(-c3ccccc3)nc2c1	-15.3%	-3.3%
68	CCc1ccc(NC(=O)Cc2ccc(-n3cccc3)cc2)cc1	-11.9%	-11.4%
69	Cc1cc(CSc2ccccc2)ccc1NC(=O)c1ccc(C)c([N+](=O)[O-])c1	-2.9%	-18.3%
70	CC(=O)N1c2ccc(S(=O)(=O)N3CCCCCC3)cc2CC1C(=O)NCc1cccc(C)c1 (stereo unspecified)	-14.9%	-6.8%
71	O=C(NCC(c1ccco1)N1CCc2ccccc21)c1c(F)cccc1F (stereo unspecified)	?	-2.1%
72	COC(=O)c1cccc(NC(=O)c2cccc([N+](=O)[O-])c2)c1	i	-5.4%
73	Cc1cc(C)c(NC(=O)c2ccccc2CCc2ccccc2)c(C)c1	-7.2%	-7.8%
74	Cc1ccc(C)c(OCC(=O)Nc2ccc(S(=O)(=O)Nc3onc(C)c3C)cc2)c1C	-10.9%	-3.1%
75	CC(=O)NC1CCCC(NC(C)=O)C1 (stereo unspecified)	i	-17.4%
76	CCC(=O)Nc1ccc(N2CCN(Cc3ccccc3)CC2)cc1	-14.1%	-7.2%
77	O=C(N/N=C/c1ccc([N+](=O)[O-])o1)c1cn(-c2ccccc2)nc1-c1ccc(F)cc1	i	16.6%
78	Oc1cccnc1CN1CCOCC1	-12.4%	-7.1%
79	CC(C)(C)NS(=O)(=O)c1ccc(CCC(=O)Nc2ccc3c(c2)OCCO3)cc1	-2.0%	-26.7%
80	CCCCNc1ncnc2c1cnn2-c1ccc(Cl)cc1	-9.9%	-20.9%
81	COc1cccc(CN(C)CC(=O)Nc2c(C)cccc2C(C)C)c1	-7.1%	-19.5%
82	COc1ccc(C(=O)Nc2nc(-c3ccc([N+](=O)[O-])cc3)c(-c3ccccc3)s2)cc1	·	2.2%
83	COc1cccc(/C=N/NC(=O)CNC(=O)c2cccs2)c1O	?	?
84	NNC(=O)c1cc(C23CC4CC(CC(C4)C2)C3)[nH]n1	?	-15.1%

Quoted at random: 2 compounds from above, in no set order.
#	molecule	Vaccinia mCherry	Vaccinia Venus
84	NNC(=O)c1cc(C23CC4CC(CC(C4)C2)C3)[nH]n1	?	-15.1%
80	CCCCNc1ncnc2c1cnn2-c1ccc(Cl)cc1	-9.9%	-20.9%

Sorted by molar mass (smallest number first): some entries from above.
#	molecule	Vaccinia mCherry	Vaccinia Venus
78	Oc1cccnc1CN1CCOCC1	-12.4%	-7.1%
84	NNC(=O)c1cc(C23CC4CC(CC(C4)C2)C3)[nH]n1	?	-15.1%
76	CCC(=O)Nc1ccc(N2CCN(Cc3ccccc3)CC2)cc1	-14.1%	-7.2%

Later entries:
#	molecule	Vaccinia mCherry	Vaccinia Venus
85	COc1ccc(-c2nn(-c3ccccc3)cc2C(=O)Nc2nc(CC(C)=O)ns2)cc1	·	?
86	COc1cc2nc(N3CCN(C(=O)OCc4ccccc4)[C@H](C(=O)NC(C)(C)C)C3)nc(N)c2cc1OC	-2.2%	-16.3%
87	CCCCOCCCNC(=O)C[C@@H]1C[C@@]2(C(=O)OCC)CCC=C2N(Cc2ccc3c(c2)OCO3)C1=O	-10.0%	-8.7%
88	COc1ccc(N(CC(=O)NCc2cccc(OC)c2)S(=O)(=O)c2c(C)noc2C)cc1	-17.1%	-4.8%
89	O=C1CCCc2cc(S(=O)(=O)N3CCC(C(=O)NCc4ccccc4)CC3)ccc2N1	-5.4%	?
90	O=C(Nc1nccs1)c1cccc(N2C(=O)C3C4C=CC(C4)C3C2=O)c1 (stereo unspecified)	-7.6%	-3.9%
91	Cc1ccc(OS(=O)(=O)c2c(C)nn(C)c2Cl)c(C)c1	-21.7%	-12.8%
92	Cc1noc(C)c1C(=O)NNc1ccc(C(C)C)cc1	-8.5%	-6.5%
93	CCn1cc(C2=NOC(C(=O)Nc3ccccc3C(=O)OC)C2)c(C)n1 (stereo unspecified)	i	-4.9%
94	CCCCn1c2ccccc2c2nnc(SCC(=O)Nc3ccc(NC(C)=O)cc3)nc21	-19.5%	-17.9%
95	C1CCC2CCCCC2C1 (stereo unspecified)	-0.4%	-10.8%
96	O=C(Nc1ccccc1)C(Cc1ccccc1)N1Cc2ccccc2C1=O (stereo unspecified)	i	-9.0%
97	CC(NS(=O)(=O)c1ccc(CCC(=O)NCc2ccco2)cc1)c1ccccc1 (stereo unspecified)	i	-0.7%
98	O=C(COC(=O)c1cc(S(=O)(=O)N2CCOCC2)ccc1Cl)Nc1ccc2c(c1)OCO2	-4.6%	-13.1%
99	CC(c1ccccc1)N(CC(=O)NC1CCCCC1)S(=O)(=O)c1cccc(C(F)(F)F)c1 (stereo unspecified)	-15.3%	-21.0%
100	Cc1cc(C)c2[nH]c(C(=O)N3CCC(n4nccc4NC(=O)C4CC4)CC3)c(C)c2c1	-18.5%	-22.4%
101	CNCCNC[C@H](Cc1cccc2ccccc12)NCCc1ccccc1	?	-12.5%
102	CCOc1ccc(NC(=O)N[C@@H](Cc2ccccc2)C(=O)O)cc1	i	-8.4%
103	O=Cc1ccc(/C=C2/C=Cc3ccccc32)cc1	22.0%	-6.6%
104	COc1cc([N+](=O)[O-])ccc1NC(=O)Nc1ccc2c(c1)OCCO2	-16.1%	-14.4%
105	O=C(CSc1nccc(=O)[nH]1)N1CCN(c2ccccc2)CC1	i	-8.5%

Filtered by structure, the compounds so far with a CF3 group
#	molecule	Vaccinia mCherry	Vaccinia Venus
25	O=C(Nc1ccccc1OC(F)(F)F)c1ccc([N+](=O)[O-])cc1	i	-4.9%
99	CC(c1ccccc1)N(CC(=O)NC1CCCCC1)S(=O)(=O)c1cccc(C(F)(F)F)c1 (stereo unspecified)	-15.3%	-21.0%
